Screens (PubChem BioAssay)
GLA inh pH 4.5: inhibitors of human alpha-galactosidase A at pH 4.5. P06280. purified enzyme, 4-MU-alpha-Gal fluorescence, pH 4.5. activity change, negative = inhibition, % at 105 µM. 230,000 tested, under 10 active; inconclusive = small, poorly fitted or top-dose-only inhibition, or a rising curve; inactive = flat fitted curve, though single readings scatter; no compound was filed as active;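 further: 0% = full activity with enzyme and -100% = basal without enzyme; dose as in the result columns while the protocol names 77 µM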
Rango-impB inh: Rango-importin beta binding inhibition. Q14974. Potency, µM (highest dose often 92.2 µM), for inactives: at the top dose inhibition of complex formation. Rango CFP/YFP FRET sensor + importin beta, 45 min. 340,000 tested, 0.031% active; active = rising FRET ratio curve, often small or poorly fitted; inconclusive = mostly compound fluorescence or quenching in the first reads; inactive = flat curves in all reads;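 further: potency means the concentration at half of the fitted maximal effect; 0% = DMSO wells and 100% = buffer wells lacking importin beta; nearly all actives have a fitted effect of over 15% in size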
Target sequence (Q14974 whole entry, looked up): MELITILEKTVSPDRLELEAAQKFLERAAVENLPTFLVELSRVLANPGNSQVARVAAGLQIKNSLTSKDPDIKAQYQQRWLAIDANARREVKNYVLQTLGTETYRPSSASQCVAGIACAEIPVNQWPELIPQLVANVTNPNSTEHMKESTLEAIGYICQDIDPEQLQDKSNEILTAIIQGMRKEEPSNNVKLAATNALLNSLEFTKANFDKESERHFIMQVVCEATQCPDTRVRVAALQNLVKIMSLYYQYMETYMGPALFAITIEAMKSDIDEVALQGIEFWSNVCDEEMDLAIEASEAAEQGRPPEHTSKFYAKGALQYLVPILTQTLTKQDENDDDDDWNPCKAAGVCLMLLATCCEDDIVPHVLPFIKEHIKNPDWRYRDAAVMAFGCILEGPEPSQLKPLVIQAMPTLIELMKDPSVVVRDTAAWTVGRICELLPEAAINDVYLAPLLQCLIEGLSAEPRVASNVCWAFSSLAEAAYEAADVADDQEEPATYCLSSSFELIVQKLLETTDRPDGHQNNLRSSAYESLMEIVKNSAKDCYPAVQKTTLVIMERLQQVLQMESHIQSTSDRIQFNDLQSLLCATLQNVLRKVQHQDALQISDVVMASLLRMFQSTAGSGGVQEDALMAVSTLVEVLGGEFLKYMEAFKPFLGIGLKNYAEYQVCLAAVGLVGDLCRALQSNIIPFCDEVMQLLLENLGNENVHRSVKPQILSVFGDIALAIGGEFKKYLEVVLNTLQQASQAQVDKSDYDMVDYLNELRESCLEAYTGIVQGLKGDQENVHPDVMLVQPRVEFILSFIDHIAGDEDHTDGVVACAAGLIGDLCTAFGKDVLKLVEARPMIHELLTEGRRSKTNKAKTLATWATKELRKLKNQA
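FRET biosensor Rango (snurportin 1 IBB between N-terminal EYFP and C-terminal Cerulean), 50 nM in PBS/1 mM DTT/0.02% Tween-20/0.1% BSA, preincubated 5 min RT with compound; 0.125 microM importin beta added, 45 min RT, CFP/YFP FRET ratio read.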
Rango release inh: prevents RanGTP from dissociating the Rango-importin beta complex; O95149+P62826; Biochemical FRET Rango-importin beta, RanGTP-induced dissociation; Potency, µM (highest dose often 46.1 µM), for the others: at the highest dose activity change, negative = inhibition; 340,000 tested, 0.071% active; AID 540253; active means falling FRET ratio curve, often poorly fitted, with flat reads before Ran was added; inconclusive means other falling curves, or compound fluorescence or quenching; inactive means flat or rising ratio curve;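 further: potency means the concentration at half of the fitted maximal effect; % of control where 0% means no effect; nearly all actives have a fitted effect of over 45% in size; -100% = wells without RanGTP and RCC1; the record marks most hits as doubtful in a second field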
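Compounds sat 5 min at room temperature with 0.1 uM Rango biosensor plus 0.25 uM importin beta, then FRET pre-read. RanGTP-RCC1 (0.6 uM Ran, 2mM GTP, 0.2 uM RCC1) added for 45 min, and the CFP/YFP post-read measured blocked complex dissociation.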
miR-21 FLuc: raises the signal of a miR-21 reporter; HeLa miR-21 FLuc reporter, luciferase, 48 h; Potency, µM (highest dose often 38.3 µM), for inactives: at the top dose reporter change, positive = more light; 340,000 tested, under 10 active; active = well fitted rising curve with a large enough effect; inconclusive = small, poorly fitted or top-dose-only effect; inactive = no such curve, though single readings can be large or run the other way;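 further: % of control where 0% means no effect; miR-21 action dims this reporter so a rising signal means less miR-21 action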
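HeLa miR-21-FLuc reporter line, endogenous miR-21; 2000 cells/well in DMEM/10% FBS; compound titration up to ~40uM final, 48 h, 37 degree Celsius; luciferase detection reagent, 15 min lysis, CCD luminescence.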
* = called active by the depositor; & = joins results of further samples.

Screening CCOC(=O)C(NC(=O)Nc1ccccc1)(OCC)C(F)(F)F (centres undefined) returned GLA inh pH 4.5 -4, Rango-impB inh 6.1%, Rango release inh -7% and miR-21 FLuc -5%.
O=C(O)c1nsc(Cl)c1Cl was read as GLA inh pH 4.5 -7, Rango-impB inh -1.3%, Rango release inh 9% and miR-21 FLuc -4%.
CCCCCC(=O)N/N=C(\C)c1ccc(Cl)cc1 was read as GLA inh pH 4.5 3, Rango-impB inh 4.8%, Rango release inh 3% and miR-21 FLuc -9%.
Screening CC(=O)c1ccc(OCc2cc(C(=O)N(C)CCOc3ccc(C)cc3)no2)cc1 returned Rango-impB inh 3.3%, Rango release inh 0% and miR-21 FLuc -31%.
For CN(c1ccccc1)c1ccc(/C=C(\C#N)c2nnc3n2CCCCC3)cc1[N+](=O)[O-] the results were GLA inh pH 4.5 -4, Rango-impB inh 2.7%, Rango release inh 17% and miR-21 FLuc -3%.
CNc1ccccc1C(=O)OC was read as GLA inh pH 4.5 4, Rango-impB inh -1.1%, Rango release inh -1% and miR-21 FLuc -1%.
O=C(NCc1ccccn1)C1CC(c2ccccc2O)=NO1 (centres undefined) was read as GLA inh pH 4.5 -2, Rango-impB inh 3.7%, Rango release inh 15% and miR-21 FLuc -4%.
CCOC(=O)N1CCN(C(=O)COC(=O)c2ccc(N(C)C)cc2)CC1 was read as Rango-impB inh 3.7% and Rango release inh -6%.
CCOc1ccc(-c2c(=O)n(OCc3ccc([N+](=O)[O-])cc3)c3ccccc3[n+]2[O-])c(OCC)c1 was read as Rango-impB inh -2.4% and Rango release inh -11%.
Screening COc1ccc(/C=C2/SC(=S)N(CCC(=O)O)C2=O)cc1 returned GLA inh pH 4.5 -29, Rango-impB inh -2.3%, Rango release inh -4% and miR-21 FLuc inconclusive.
Cc1oc(-c2ccccc2)nc1CC(=O)O was read as GLA inh pH 4.5 13, Rango-impB inh -0.8%, Rango release inh -9% and miR-21 FLuc -3%.
For COc1ccc(C)c2sc(NC(=O)CCS(=O)(=O)c3ccccc3)nc12 the results were Rango-impB inh -0.4%, Rango release inh -3% and miR-21 FLuc 13%.

Next part, starting with the last five of the part before.
CCOC(=O)N1CCN(C(=O)COC(=O)c2ccc(N(C)C)cc2)CC1 was read as Rango-impB inh 3.7% and Rango release inh -6%.
CCOc1ccc(-c2c(=O)n(OCc3ccc([N+](=O)[O-])cc3)c3ccccc3[n+]2[O-])c(OCC)c1 was read as Rango-impB inh -2.4% and Rango release inh -11%.
Screening COc1ccc(/C=C2/SC(=S)N(CCC(=O)O)C2=O)cc1 returned GLA inh pH 4.5 -29, Rango-impB inh -2.3%, Rango release inh -4% and miR-21 FLuc inconclusive.
Cc1oc(-c2ccccc2)nc1CC(=O)O was read as GLA inh pH 4.5 13, Rango-impB inh -0.8%, Rango release inh -9% and miR-21 FLuc -3%.
For COc1ccc(C)c2sc(NC(=O)CCS(=O)(=O)c3ccccc3)nc12 the results were Rango-impB inh -0.4%, Rango release inh -3% and miR-21 FLuc 13%.
Screening CCOc1ccc(NC(=O)CCn2cccc2)cc1 returned GLA inh pH 4.5 4, Rango-impB inh 0.1%, Rango release inh 0% and miR-21 FLuc -21%.
`Cc1ccc(N(CC(=O)NCc2ccco2)C(=O)CCC(=O)Nc2ccccn2)c(C)c1` gave Rango-impB inh -2.1%, Rango release inh 0% and miR-21 FLuc -3%.
For O=C(Nc1nnc(S(=O)(=O)N2CCCCCC2)s1)c1ccc(Br)cc1 the results were Rango-impB inh 1.4%, Rango release inh 3% and miR-21 FLuc -3%&21%.
`COc1ccc(S(=O)(=O)N2CCN(C(=O)c3sccc3-c3ccccc3)CC2)cc1` gave Rango-impB inh -0.2% and Rango release inh -8%.
`Cc1ccc(S(=O)(=O)N2CCOCC2)cc1C(=O)OCC(=O)NC1CCCC(C)C1C` (centres undefined) gave Rango-impB inh -4.9% and Rango release inh 10%.
Screening O=C1CC(C(=O)N2CCN(c3ccccc3)CC2)CN1Cc1ccccc1 (centres undefined) returned Rango-impB inh -0.7% and Rango release inh -2%.
Screening O=C(O)c1ccc2c(c1)C(=O)/C(=C/c1ccccc1)C2=O returned GLA inh pH 4.5 1, Rango-impB inh 3.2%, Rango release inh 13% and miR-21 FLuc -2%.
`CC(=O)CSc1nc2c(c(=O)[nH]c(=O)n2C)n1Cc1cccc(Br)c1` gave Rango-impB inh 0.3%, Rango release inh 20% and miR-21 FLuc -24%.
Screening CCOc1ncccc1C(=O)OCC(=O)N(CC)c1ccccc1 returned GLA inh pH 4.5 6, Rango-impB inh 0.1%, Rango release inh 9% and miR-21 FLuc 0%.
Screening CC(CCc1ccco1)NC(=O)CCc1nnc2ccc(NCc3ccc(Cl)cc3)nn12 (centres undefined) returned Rango-impB inh 6.5%, Rango release inh -5% and miR-21 FLuc -3%.
Screening Cc1ccc(CC2CC(=O)N(c3ccc4c(c3)OCCO4)C2=O)cc1 (centres undefined) returned GLA inh pH 4.5 5, Rango-impB inh -1.0%, Rango release inh 12% and miR-21 FLuc -13%.
Screening CC(=O)Nc1cccc(-c2nc3ccccc3o2)c1 returned Rango-impB inh -4.6%, Rango release inh -14% and miR-21 FLuc -35%.
For Cc1ccc(C(=O)CNc2ccccc2C)cc1 the results were GLA inh pH 4.5 0, Rango-impB inh 2.1%, Rango release inh 0% and miR-21 FLuc -1%.
For Cc1ccccc1C(=O)NC(=S)NCC(=O)c1ccccc1 the results were GLA inh pH 4.5 -7, Rango-impB inh 0.1%, Rango release inh 10% and miR-21 FLuc -1%.
COc1ccccc1-c1cccc([C@@H]2C[C@H]3[C@H](CON3C)CN2C(=O)CCc2ccccc2)c1 was read as Rango-impB inh -1.5% and Rango release inh 14%.
For CC(=O)c1ccc(NC(=S)Nc2cccc(Cl)c2C)cc1 the results were GLA inh pH 4.5 3, Rango-impB inh -0.6%, Rango release inh 8% and miR-21 FLuc -3%.
CCOc1ccccc1NC(=O)COC(=O)c1cc(C)oc1C was read as Rango-impB inh -1.9% and Rango release inh 1%.
`Nc1nc(=O)n(C2CC(O)C(CO)O2)cc1F` (centres undefined) gave Rango-impB inh -0.4% and Rango release inh -15%.
`Cc1noc(NS(=O)(=O)c2ccc(NC(=O)c3cc(S(=O)(=O)N(C)c4ccccc4)ccc3Cl)cc2)c1C` gave Rango-impB inh -1.2% and Rango release inh 31%.
Screening COC(=O)CSc1nc(C)cc(Oc2ccccc2)n1 returned GLA inh pH 4.5 -6, Rango-impB inh 0.3%, Rango release inh -6% and miR-21 FLuc -5%.
For O=C(COC(=O)c1n[nH]c2ccccc12)NC1CCCCC1 the results were Rango-impB inh 1.0% and Rango release inh 10%.
`Cc1oc(-c2cccc(Cl)c2)nc1CN1CCC(C(=O)NCCCN2CCCC2=O)CC1` gave GLA inh pH 4.5 5, Rango-impB inh 2.2%, Rango release inh 2% and miR-21 FLuc 0%.
`COc1ccc2c(c1)c1ncn(Cc3ccc(F)cc3)c(=O)c1n2C` gave GLA inh pH 4.5 -4, Rango-impB inh -1.3%, Rango release inh -17% and miR-21 FLuc 1%.
For COC(=O)c1ccccc1NC(=O)CCC(=O)N1CC(C)Oc2ccc(C)cc21 (centres undefined) the results were Rango-impB inh -0.6%, Rango release inh -7% and miR-21 FLuc 3%.
Cn1c(O)c(C2=c3ccccc3=NC2=O)[nH]c1=S was read as GLA inh pH 4.5 -2, Rango-impB inh 0.4%, Rango release inh 12% and miR-21 FLuc 11%.
Clc1cccc(/C=N/Nc2nnc(Cl)c3ccccc23)c1 was read as GLA inh pH 4.5 1, Rango-impB inh -2.7%, Rango release inh 14% and miR-21 FLuc -30%.
COC(C(=O)Nc1ccnn1C1CCN(Cc2cnn(C(C)C)c2)CC1)c1ccccc1 (centres undefined) was read as Rango-impB inh 1.1%, Rango release inh -13% and miR-21 FLuc -6%.
CCOc1ccc(N2CC(C(=O)Nc3ccc(S(=O)(=O)N4CCCC4)cc3)CC2=O)cc1 (centres undefined) was read as Rango-impB inh -1.3%, Rango release inh 13% and miR-21 FLuc 2%.
For O=C(NC(=S)NNC(=O)c1ccco1)c1ccc(F)cc1 the results were Rango-impB inh -0.7%, Rango release inh 9% and miR-21 FLuc 0%.
N/C(COc1cccc(C(F)(F)F)c1)=N\NC(=O)c1cccnc1Oc1ccccc1 was read as GLA inh pH 4.5 3, Rango-impB inh 1.4%, Rango release inh -1% and miR-21 FLuc 4%.
For Cc1ccc(CNS(=O)(=O)c2c(C)[nH]c(C)c2C(=O)N2CCCCC2)cc1 the results were Rango-impB inh 0.2%, Rango release inh -1% and miR-21 FLuc -2%.
`CC(C1CC1)N(Cc1ccccc1)C(=O)NC(=O)c1cccc(F)c1` (centres undefined) gave GLA inh pH 4.5 5, Rango-impB inh -3.6%, Rango release inh -2% and miR-21 FLuc 4%.
O=C(Nc1cccc(F)c1)C1CCN(c2nnnn2-c2ccccc2)CC1 was read as GLA inh pH 4.5 -5, Rango-impB inh -0.4%, Rango release inh -10% and miR-21 FLuc 10%.
`CCOC(=O)CSc1nc(C)c(CC)c(C)c1C(N)=O` gave GLA inh pH 4.5 0, Rango-impB inh -1.0%, Rango release inh 9% and miR-21 FLuc 3%.
For Cc1ccc(C(=O)NC(C)C2CC3CCC2C3)cc1 (centres undefined) the results were Rango-impB inh -5.4% and Rango release inh -8%.
COC(=O)c1ccc(C(C(=O)NC2CCCCC2)N(CCc2ccccc2)C(=O)Cc2cccs2)cc1 (centres undefined) was read as GLA inh pH 4.5 5, Rango-impB inh 3.8%, Rango release inh 2% and miR-21 FLuc -7%.
Screening C=CCn1c(SCC(=O)Nc2cccc(C)c2)nnc1-c1cnccn1 returned GLA inh pH 4.5 -6, Rango-impB inh 1.3%, Rango release inh -1% and miR-21 FLuc -4%.
Screening COc1ccccc1CNC(=O)/C=C/c1ccc(S(=O)(=O)N2CCOCC2)cc1 returned GLA inh pH 4.5 7, Rango-impB inh -4.6%, Rango release inh 26% and miR-21 FLuc -3%.
`S=c1[nH]nc(NCCCN2CCOCC2)s1` gave GLA inh pH 4.5 -2, Rango-impB inh 1.3%, Rango release inh 3% and miR-21 FLuc -3%.
Screening CC1=NNC(=O)C1C(c1ccccc1)C1C(=O)NN=C1C (centres undefined) returned GLA inh pH 4.5 -3 and miR-21 FLuc 0%.
CC1CCCCN1C(=O)CCS(=O)(=O)Cc1ccccc1 (centres undefined) was read as Rango-impB inh -2.6%, Rango release inh 24% and miR-21 FLuc -10%.
For CCN1CCN(Cc2ccc(NC(=O)c3ccc(C)c(NC(=O)c4c[nH]c5cc(C(F)(F)F)ccc5c4=O)c3)cc2C(F)(F)F)CC1 the results were GLA inh pH 4.5 -8, Rango-impB inh -4.4%, Rango release inh -11% and miR-21 FLuc inconclusive.
CN(C)/C=C/c1onc(-c2c(Cl)cccc2Cl)c1C#N was read as GLA inh pH 4.5 -4, Rango-impB inh inconclusive, Rango release inh -21% and miR-21 FLuc 4%.
For C/C(=N\NC(N)=S)C1(C)CCCCC1 the results were GLA inh pH 4.5 6, Rango-impB inh -2.3%, Rango release inh -10% and miR-21 FLuc 26%.
COc1ccc2cc(/C=N/NC(=O)CN(c3ccccc3)S(=O)(=O)c3ccccc3)c(Cl)nc2c1 was read as GLA inh pH 4.5 inconclusive and miR-21 FLuc -3%.
Screening CCCS(=O)(=O)N1CCC(C(=O)N2CCc3ccccc3C2)CC1 returned GLA inh pH 4.5 6, Rango-impB inh -1.2%, Rango release inh -14% and miR-21 FLuc 0%.
Screening CCOc1cc(C(=O)O)ccc1OCCOc1ccccc1 returned Rango-impB inh 2.3%, Rango release inh 9% and miR-21 FLuc 0%.
For COc1ccc(NS(=O)(=O)c2ccc(S(=O)(=O)N3CCCC3)cc2)cc1Cl the results were GLA inh pH 4.5 3, Rango-impB inh 0.5%, Rango release inh -3% and miR-21 FLuc -3%.
CS(=O)(=O)Nc1ccc(C2=NN(S(C)(=O)=O)C(c3ccc4nccnc4c3)C2)cc1 (centres undefined) was read as GLA inh pH 4.5 1, Rango-impB inh inconclusive, Rango release inh -1% and miR-21 FLuc -15%.

A portion of the library. The share of hits here may be higher or lower than overall.
